# Screening data as filed in PubChem.
# fixLJ activator: B. multivorans fixK reporter activation; B. multivorans fixK-promoter GFP reporter, 18 h; active compounds read high; z-score (no concentration beside the values); 29,000 compounds, 0.3% hits;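 active = replicate mean overnight rise in green fluorescent reporter signal, 3 or more SD over negative controls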;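 note: score is relative to vehicle wells of the plate; 300 nL library stock went into each well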
# Starred values were filed as active, the others as inactive; & = joins results of further samples. A portion of the library (hit frequency here may not be typical).
SMILES,fixLJ activator
CCc1cccc(NC(=O)c2cc3c(=O)oc4ccc(C)cc4c3s2)c1,0.57
CCc1nc(CN2CCCC(OCc3cccnc3)C2)no1 (stereo not drawn),-0.38
CCCN(C(=O)c1coc(=O)c2ccccc12)c1ccccc1C,-1.2
CN1CCC(C(=O)N2CCN(c3nccc(-c4ccccc4)n3)CC2)CC1,-0.4
CCC(N)C(O)c1ccc(O)c(O)c1 (stereo not drawn),1.7
O=C(c1ccccn1)N1CCC(c2n[nH]c(=O)n2Cc2ccccc2)CC1,-0.47
Cc1cc(C)cc(NC(=O)C(=O)NCCCN2CCOCC2)c1,-1
COc1ccccc1N1CCN(C(=O)CSc2nc(C)cc(=O)[nH]2)CC1,-1
CN(C)CCc1c[nH]c2ccc(Cn3cncn3)cc12,-0.98
O=C(c1ccccn1)C1CCCN(C(=O)c2cc3ncccn3n2)C1 (stereo not drawn),0.18
CCCCn1ncc(C)c1NC(=O)C1CC(=O)Nc2ccc(OC)cc21 (stereo not drawn),-1.9
COc1cc(C2CC(=O)c3c([nH]c(C(=O)OC4CCCC4)c3C)C2)cc(OC)c1OC (stereo not drawn),-4.4
CCOC(=O)c1ccccc1NC(=O)c1ccc2c(Cl)c3c(nc2c1)CCC3,-0.99
Cc1ccnc(NS(=O)(=O)c2ccc(NC(=O)c3ccc(C)c(C)c3)cc2)n1,-0.94
O=C(Cc1ccccc1F)N1CCC(c2nc3c(nnn3Cc3ccc(F)cc3)c(=O)[nH]2)CC1,-1.9
Oc1ccc(NCc2ccccc2OCc2ccccc2)cc1,0.5
Cc1ccc(NC(=O)C(Cc2ccccc2)n2cccc2)c(C)c1 (stereo not drawn),-1.4
CCOc1ccc2c(c1)c(=O)c(C(=O)c1ccc(CC)cc1)cn2CC(=O)Nc1ccccc1OC,-1.6
COc1ccc(-c2nn3c(-c4ccccc4C)nnc3c3ccccc23)cc1,-0.35
COc1ccc2oc(=O)c(C(=O)Nc3ccc(C(=O)O)cc3)cc2c1,0.71
CCCN(Cc1nccn1C)C(=O)c1ccccc1C(=O)O,0.76
CCCCCCNC(=O)N1CCNC(=O)C1c1ccc(F)cc1 (stereo not drawn),-1
COc1ccc(CNc2nc(-c3ccc(Cl)cc3)cc(C(F)(F)F)n2)cc1,-1.1
COc1ccccc1NC(=O)CSc1nc2c(oc3ccccc32)c(=O)n1-c1ccccc1F,-0.41
CCCOC(=O)c1c(NC(=O)C(C)Sc2nc(-c3ccccc3)cc(C(F)(F)F)n2)sc(C(=O)N(C)C)c1C (stereo not drawn),0.5

# 4 successive compounds out of the list so far, quoted:
SMILES,fixLJ activator
CCCCCCNC(=O)N1CCNC(=O)C1c1ccc(F)cc1 (stereo not drawn),-1
COc1ccc(CNc2nc(-c3ccc(Cl)cc3)cc(C(F)(F)F)n2)cc1,-1.1
COc1ccccc1NC(=O)CSc1nc2c(oc3ccccc32)c(=O)n1-c1ccccc1F,-0.41
CCCOC(=O)c1c(NC(=O)C(C)Sc2nc(-c3ccccc3)cc(C(F)(F)F)n2)sc(C(=O)N(C)C)c1C (stereo not drawn),0.5

# The main list resumes with the 5 entries that preceded the break.
SMILES,fixLJ activator
CCCN(Cc1nccn1C)C(=O)c1ccccc1C(=O)O,0.76
CCCCCCNC(=O)N1CCNC(=O)C1c1ccc(F)cc1 (stereo not drawn),-1
COc1ccc(CNc2nc(-c3ccc(Cl)cc3)cc(C(F)(F)F)n2)cc1,-1.1
COc1ccccc1NC(=O)CSc1nc2c(oc3ccccc32)c(=O)n1-c1ccccc1F,-0.41
CCCOC(=O)c1c(NC(=O)C(C)Sc2nc(-c3ccccc3)cc(C(F)(F)F)n2)sc(C(=O)N(C)C)c1C (stereo not drawn),0.5
CO/N=C(/C(=O)NC1C(=O)N2C(C(=O)O)=C(COC(N)=O)CSC12)c1ccco1 (stereo not drawn),-9.7
Cc1ccc(C(=O)Nc2ccc(Cl)c(-c3nc4ncccc4o3)c2)c(C)c1,-3.2
O=C(CCn1c(=O)c2ccccc2n(Cc2cccc(Cl)c2)c1=O)NCCc1ccccc1,-0.43
O=C(Cn1c(=O)n(Cc2cccs2)c(=O)c2cccnc21)Nc1ccc(F)cc1,-0.29
CC(C)(C)c1ccc(C(=O)Nc2c(C(=O)c3ccc(F)cc3)oc3ccccc23)cc1,-0.38
CC1(C)CC(=O)c2cc(-c3nc(-c4ccc(Cl)cc4)cs3)c(=O)n(-c3ccc(F)cc3)c2C1,-1.2
Cn1cc(-c2cn(CCCn3ccnc3)nn2)c(-c2ccccc2)n1,-0.61
COc1ccc(-c2noc(CN3CCN(c4cccc(Cl)c4)CC3)n2)cc1,0.62
Cc1ccc(NC(=O)C(C)Sc2nc(=O)cc(N)n2-c2cccc(C)c2)cc1 (stereo not drawn),-1.9
Cc1noc(/C=C/c2cccs2)c1S(=O)(=O)N1CCC(C(=O)Nc2ccc(F)c(Cl)c2)CC1,-1.1
CC(C)N1CC(CN2CCN(CCn3cncn3)CC2)CCC1=O (stereo not drawn),0.57
Cc1ccc(CN(Cc2ccco2)C(=O)c2cccc(C)c2)cc1,-0.35
COc1ccc(-c2nc3nc(C)cc(C)n3c2Nc2c(C)cccc2C)cc1,-2.1
COc1ccc(Cl)cc1NC(=O)Cn1cc2c(n1)CCC(C)C2 (stereo not drawn),-0.77
CCC(NC1CCN(C(=O)c2ccccc2)CC1)c1ccnn1C (stereo not drawn),0.28
O=C(C1CCCN(C2CCN(c3cnccn3)CC2)C1)N1CCOCC1 (stereo not drawn),1.1
COCC1(C(=O)NC(c2ccncc2)c2ccc(C)cc2)CCC1 (stereo not drawn),0.19
C=CCc1cc(C(=O)NC(C)c2nncn2C(C)C)ccc1OC (stereo not drawn),-0.25
Oc1cc(Cl)ccc1Oc1ccc(Cl)cc1Cl,-5.6
C=CCc1ccccc1OCC(O)CN1CCN(c2ccccc2)CC1 (stereo not drawn),-0.03
CCOC(=O)CC1CCCCN1C(=O)c1cn(C)c2ccccc12 (stereo not drawn),-0.51
CCc1ccc2nc(C)cc(C(=O)NCCc3nc(COC)no3)c2c1,2
Cc1ccc(Nc2c(-c3ccc(N(C)C)cc3)nc3ccccn23)cc1,2.6
CCOc1ccccc1NC(=O)C(C)N(c1ccccc1)S(C)(=O)=O (stereo not drawn),-1
COC(=O)NCC(=O)N1CC2CCC1CN(C(=O)c1ccccn1)C2 (stereo not drawn),-0.1

# (further entries)
SMILES,fixLJ activator
CCOC(=O)c1ccccc1NC(=O)c1cc2c(=O)oc3ccc(C)cc3c2s1,-0.09
CC1CCCN(Cc2c(O)ccc3c(=O)c(Oc4ccc(C(C)(C)C)cc4)c(C(F)(F)F)oc23)C1 (stereo not drawn),-0.11
CCNC(=O)CN1CCOc2c(O)cc(-c3ccccc3C)cc2C1,-0.88
COc1ccc(-c2cc(OC(=O)c3ccccc3)c3c(C)oc(C)c3c(=O)c2)cc1OC,-0.15
CCCSc1ncc(Cl)c(C(=O)Nc2c(C(=O)Nc3ccc(C)cc3)oc3ccccc23)n1,-0.75
CCOc1ccc(N(C(C)C(=O)NCCSc2ccc(Cl)cc2)S(C)(=O)=O)cc1 (stereo not drawn),-1.7
CC(C)CCNC(=O)c1ccc(NC(=O)N2CCCCc3ccccc32)cc1,-0.88
Cc1oc(-c2cccc(Cl)c2)nc1CN1CCC(C(=O)NCCCN2CCN(c3ccc(F)cc3)CC2)CC1,-2.1
Cc1sc2ncn(CC(=O)Nc3ccc(C(C)C)cc3)c(=O)c2c1S(=O)(=O)N1CCN(c2ncccn2)CC1,-0.62
O=C(NCc1cccs1)c1cccc(-c2cc(N3CCCC3)cnn2)c1,-0.58
COCCCNc1nc2c(c(=O)n(Cc3ccccc3)c(=O)n2C)n1C,-0.07
Cc1ccc2nc(/C(C#N)=C/c3ccc(-c4ccc(F)cc4F)o3)[nH]c2c1,-4.9
CC(=O)c1cc(CN2CC3COC[C@]3(C(=O)NCC3=CCCCC3)C2)cs1 (stereo partly drawn),-1.4
Cc1cccc(OC(C)(C)C(=O)NC2COCC2Cc2ccncc2)c1C (stereo not drawn),0.99
COc1ccc(-c2noc(COc3ccc(Br)cc3C)n2)cc1OC,0.12
CCc1ccc(NCc2cccn2-c2nnc(N3CCCCCC3)s2)cc1,-1.3
CCn1ncc(C(=O)NCC(C)Cn2nc(C)cc2C(F)(F)F)c1C (stereo not drawn),-3
CCCCn1c(CN2CCN(c3ccc(OC)cc3)CC2)nc2c1c(=O)[nH]c(=O)n2C,0.38
COCCn1ccnc1CN1CCCC1C(=O)N1CCOCC1 (stereo not drawn),-1.5
Cc1nn(C)c(C)c1CCC(=O)N1CCCC(CS(C)(=O)=O)C1 (stereo not drawn),1.1
CCCCNC(=O)c1ccc2c(c1)NC(=O)C(C(C)C)N2 (stereo not drawn),0.08
Cc1ccc(CCNc2nc3ccccc3c3nc(-c4cccnc4)nn23)cc1,-1.6
CCCN1C(=O)NC(CC(=O)N2CCC(COC)CC2)C1=O (stereo not drawn),-2.2
COc1cccc(NC(=O)Cn2c(=O)n(-c3ccc(C)cc3)c(=O)c3ccccc32)c1,-0.78
Cn1c(=O)[nH]c(=O)c2c1nc(NCCc1ccccc1)n2Cc1ccc(F)cc1,-0.08

# The list goes on, starting with the last 7 of the part before.
SMILES,fixLJ activator
COCCn1ccnc1CN1CCCC1C(=O)N1CCOCC1 (stereo not drawn),-1.5
Cc1nn(C)c(C)c1CCC(=O)N1CCCC(CS(C)(=O)=O)C1 (stereo not drawn),1.1
CCCCNC(=O)c1ccc2c(c1)NC(=O)C(C(C)C)N2 (stereo not drawn),0.08
Cc1ccc(CCNc2nc3ccccc3c3nc(-c4cccnc4)nn23)cc1,-1.6
CCCN1C(=O)NC(CC(=O)N2CCC(COC)CC2)C1=O (stereo not drawn),-2.2
COc1cccc(NC(=O)Cn2c(=O)n(-c3ccc(C)cc3)c(=O)c3ccccc32)c1,-0.78
Cn1c(=O)[nH]c(=O)c2c1nc(NCCc1ccccc1)n2Cc1ccc(F)cc1,-0.08
CC(=O)c1c(C)nn(C(C)CC(=O)NCCCc2ccncc2)c1C (stereo not drawn),-0.66
COc1ccc(NC(=O)Cn2nnc(C(=O)NCc3cccs3)c2N)cc1,-0.86
C=C1C[C@H]2[C@@H]3C=C(C)C4=CC(=O)CC[C@]4(C)[C@H]3CC[C@]2(C)[C@@]1(OC(C)=O)C(C)=O,-1.8
CCCn1nccc1S(=O)(=O)NC(CC)c1nc(C)c(C)s1 (stereo not drawn),-1.7
CCOc1ccc(NC(=O)Cn2nnc(C(=O)NCc3cccs3)c2N)cc1,-0.44
Cc1cc(C)n(CCC(=O)NC2COCC2Cc2ccnc3ccccc23)n1 (stereo not drawn),-0.47
COc1ccccc1C(=O)Nc1nc2nc(C)c(Cc3ccccc3)c(=O)n2[nH]1,0.07
COc1ccc(C(=O)Nc2c(C(=O)c3ccccc3)oc3ccccc23)cc1,-1
COc1ccc(/C=C/C(=O)Nc2nc3n(n2)C(c2ccccc2)C=C(c2ccc(Cl)cc2)N3)cc1 (stereo not drawn),-0.87
Cc1ccc(-c2cc(NC(=O)COc3ccc(Cl)cc3C)on2)cc1,-1.7
COc1ccc(Br)cc1[C@@H]1Nc2ccc(C(=O)O)cc2[C@@H]2C=CC[C@@H]21,-2.8
COc1ccc(Cl)cc1NC(=O)CCc1nc(-c2ccccc2F)no1,-0.66
CC(C)n1cc(NC(=O)c2ccc3c(c2)nc(N2CCOCC2)n3C)cn1,-0.78
O=C(NCCCCC1CCCO1)Nc1ccc2c(c1)C(=O)N(C1CC1)C2=O (stereo not drawn),0.52
Cc1cccc(OCC(=O)N(Cc2ccc(N(C)C)cc2)Cc2ccco2)c1C,0.43
CN(C)CCCOc1nn(Cc2ccccc2)c2ccccc12,0.68&0.13
COC1CCCOC12CCN(C(=O)c1csc(C(C)=O)c1)CC2 (stereo not drawn),0.5
Cc1ccccc1C(=O)Nc1sc2c(c1C(=O)NCc1ccco1)CCC(C(C)(C)C)C2 (stereo not drawn),-0.1
COC(=O)CCCC(=O)N1CCC(Oc2cccc(F)c2)CC1,-1.8
COc1ccccc1OC(C)C(=O)Nc1c(C(=O)c2ccc(Cl)cc2)oc2ccccc12 (stereo not drawn),-1
Cc1nc(-c2cccc(NC(=O)c3csc4c3CCCC4)c2)n[nH]1,0.65
CC(C)CN1CCn2nc(CNC(=O)CCC(=O)NC3CCCC3)cc2C1,-2.5
CC(=O)c1ccc(N2CCN(C(=O)CCc3nnc4n(C)c(=O)c5sccc5n34)CC2)cc1,-1.1
COc1ccc(-c2cc(C(=O)Nc3ccn(Cc4ccc(C)cc4)n3)no2)cc1OC,-0.54
Cc1cc(C)cc(N(CC(=O)NCc2ccccc2Cl)S(=O)(=O)c2c(C)noc2C)c1,-0.64

# (continued)
SMILES,fixLJ activator
COc1cccc(CN2CCCC3(CCN(C(=O)c4cnc[nH]4)C3)C2=O)c1OC (stereo not drawn),-1.4
N#Cc1cc2c(=O)n3ccccc3nc2n(-c2nnc(SCc3ccccc3F)s2)c1=O,-1.6
COc1cccc(C(=O)N(Cc2ccc(C)o2)C2CCS(=O)(=O)C2)c1 (stereo not drawn),-1.2
CCOc1ccc(NC(=O)CCc2nc3cccnc3n2-c2ccccc2)cc1,-0.76
CCOCCCn1c(=N)c(S(=O)(=O)c2ccc(C)cc2)cc2c(=O)n3ccccc3nc21,-1.7
COc1ccc(CCNC(=O)c2cc(-c3ccc(Cl)cc3)on2)cc1OC,-1.5
O=C(NCc1ccccn1)c1nn(-c2ccccc2F)nc1CO,-0.01
CCNc1nc(NC(C)CC)nc(Oc2ccc(OCC)nn2)n1 (stereo not drawn),0.17
CCC(=O)O[C@H]1[C@H](O[C@@H]2[C@@H](C)[C@H](O[C@H]3C[C@@](C)(OC)[C@@H](O)[C@H](C)O3)[C@@H](C)C(=O)O[C@H](CC)[C@@](C)(O)[C@H](O)[C@@H](C)C(=O)[C@H](C)C[C@@]2(C)O)O[C@H](C)C[C@@H]1N(C)C,0.58
COCCn1cnnc1CCNC1CCN(c2ccc(F)c(F)c2)CC1,0.6
Cc1cc(=O)n2c(C(=O)Nc3ccc(Br)cc3)c(C(=O)Nc3ccccc3)sc2n1,-1.3
Cc1cccc(C(C)C)c1NC(=O)CN(C)CC1(CO)CCOCC1,-1.2
CCc1c(C)nn(CC(=O)NCc2ccc3[nH]c(=O)[nH]c3c2)c1C,-1.9
CCc1nnc(SCc2cccc(Cl)c2)c2cc3sccc3n12,1.5
